Bioassay records (PubChem BioAssay)
Six1-Eya2 blk – qHTS Assay for Inhibitors of the Six1/Eya2 Interaction; activity change, % (concentration not given with the values); hit rate 0.56% among 360,000; AID 651725, 2012; AlphaScreen GST-Six1/His-Eya2 binding, biochemical; active compounds read low; control for the full effect not named in the record; in the data active = activity change below about -65%; inconclusive = about -30% to -65%; inactive = above about -30%; further: on the % scale 0 is the no-effect control and ±100 the full control effect
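Compounds are tested against tagged Six1 and Eya2 proteins bridged by glutathione donor and nickel acceptor beads; after a one-hour incubation at 37 °C without light, AlphaScreen emission is recorded.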
D2 agonist – Beta-Arrestin HTS for Positive Allosteric Modulators of the Human D2 Dopamine Receptor: Agonists; D(2) dopamine receptor (Homo sapiens), P14416; DiscoveRx PathHunter D2 beta-arrestin, luminescence, 90 min; 100% = 57 uM dopamine signal; activation, % (concentration not given with the values); hit rate 0.084% among 360,000; AID 624465, 2012; in the data active = activation above about 40%; inconclusive = about 15% to 40%; inactive = below about 15%; further: compound concentration not given in the record; the text of the record calls up to 30% inactive
Target sequence (P14416 whole entry, looked up): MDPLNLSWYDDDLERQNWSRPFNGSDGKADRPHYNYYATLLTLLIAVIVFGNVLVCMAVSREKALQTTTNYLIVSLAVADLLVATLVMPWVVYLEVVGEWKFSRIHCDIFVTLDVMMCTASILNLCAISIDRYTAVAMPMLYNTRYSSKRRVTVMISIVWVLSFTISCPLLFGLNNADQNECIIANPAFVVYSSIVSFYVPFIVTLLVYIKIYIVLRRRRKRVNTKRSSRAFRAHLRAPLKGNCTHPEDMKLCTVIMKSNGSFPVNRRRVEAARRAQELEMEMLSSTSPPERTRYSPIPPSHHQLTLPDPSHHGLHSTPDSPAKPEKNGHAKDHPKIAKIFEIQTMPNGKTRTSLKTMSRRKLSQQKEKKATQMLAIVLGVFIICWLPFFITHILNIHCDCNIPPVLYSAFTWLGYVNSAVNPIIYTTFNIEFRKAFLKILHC
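Agonist mode: compounds alone added to overnight-plated D2 PathHunter cells for 90 min at 37 C, with 57 uM final dopamine (EC100) defining full response. Beta-arrestin recruitment detected by chemiluminescent reagent, read after 1 h at ambient temperature.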
D2 potentiator – Beta-Arrestin HTS for Positive Allosteric Modulators of the Human D2 Dopamine Receptor: Potentiators. D(2) dopamine receptor (Homo sapiens), P14416. DiscoveRx D2 beta-arrestin cells, luminescence, 90 min; 100% = 57 uM dopamine signal. potentiation, % (test concentration not listed). hit rate 0.23% among 360,000. AID 624464, 2012; active = potentiation of 50% or more; inconclusive = 30% to 50%; inactive = 30% or less;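 further: compound concentration not given in the record; tested on top of an EC20 dose of dopamine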
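D2 cells co-treated with compound plus 50 nM dopamine (EC20) for 90 min at 37 deg C to detect potentiation. Beta-arrestin recruitment was read as enzyme-fragment luminescence after 1 h at ambient temperature. Full response was set by 57 uM dopamine.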
gsp antag – qHTS for Antagonists of gsp, the Etiologic Mutation Responsible for Fibrous Dysplasia/McCune-Albright Syndrome: qHTS | hit rate 0.4% among 340,000 | Potency, µM (series often up to 76.9 µM), for the others: at the highest dose activity change, negative = inhibition, most hits filed as inhibitors | AID 624288, 2012 | gsp-mutant cells, cAMP HTRF, 30 min; control for the full effect not named in the record; active = falling curve of any shape with a large fitted effect; inconclusive = falling curve, mostly with a smaller effect; inactive = flat or rising curve; cell line not stated here;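 further: intracellular cAMP measured with PDE inhibitor Ro 20-1724 present during compound exposure; potency means the concentration at half of the fitted maximal effect; on the % scale 0 is the no-effect control and ±100 the full control effect; nearly all actives have a fitted effect of over 65% in size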
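Cells in G418 medium, seeded 16-24 h, 37C; buffer exchange to DPBS + 1 mM CaCl2, 0.5 mM MgCl2, 0.05% BSA; cpds in DMSO + […] (300 uM stock), 30 min 37C; HTRF cAMP detection.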
gsp agonist – qHTS for Agonist of gsp, the Etiologic Mutation Responsible for Fibrous Dysplasia/McCune-Albright Syndrome: qHTS | hit rate 0.13% among 340,000 | gsp mutant cells, cAMP HTRF, 30 min; control for the full effect not named in the record | Potency, µM (doses to about 76.9 µM), inactives show top-dose activation (cAMP increase), most hits filed as activators; active = well fitted activation curve with a large enough effect; inconclusive = small, poorly fitted or top-dose-only effect, or another doubt; inactive = no such curve, though single readings can be large or run the other way; cell line not stated here;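 further: phosphodiesterase inhibitor Ro 20-1724 added with compounds to block cAMP breakdown; potency means the concentration at half of the fitted maximal effect; nearly all actives have a fitted effect of over 60% in size; about a fifth of the inactives were tested at one dose only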
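Cells stably selected in G418 were plated at 2000/well, grown 16-24 hr, then given compounds in DMSO with the PDE inhibitor […] (300 uM solution added) for 30 min at 37C; cAMP was read by HTRF.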
CtBP-E1A inh – qHTS Assay for Inhibitors of the CtBP/E1A Interaction; CtBP / adenovirus E1A interaction (AlphaScreen); AlphaScreen GST-E1A/His-CtBP binding, 1536-well; active compounds read low; control for the full effect not named in the record; activity change, % (concentration not given with the values); hit rate 0.49% among 340,000; AID 651724, 2012; in the data active means activity change below about -65%; inconclusive means about -30% to -65%; inactive means above about -30%; further: on the % scale 0 is the no-effect control and ±100 the full control effect
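AlphaScreen with 125 nM GST-E1A and 125 nM His-CtBP (5X stocks) in Tris pH 8.0, 300 mM NaCl, BSA, Tween 20, TCEP. Compounds preincubated 2 h at 37 deg C, then glutathione donor/nickel acceptor beads added for 1 h at 37 deg C in dark.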
* marks the source's active call; other numbers are inactive results; [ ] = another dose, or the depositor's remark.

Screening Nc1ccc(C(=O)OCC(=O)Nc2cc([N+](=O)[O-])ccc2F)cc1 returned Six1-Eya2 blk 1, D2 agonist -5.3, D2 potentiator -11, gsp antag inconclusive and gsp agonist 13%.
For Cc1ccc(C(=O)N2N=C(c3ccc(Br)cc3)CC2c2ccccc2O)cc1 (stereo not drawn) the results were Six1-Eya2 blk 3, D2 agonist 1.0, D2 potentiator -13, gsp antag -16%, gsp agonist 8%[15.4 µM] and CtBP-E1A inh 1.
Screening Cc1csc(SCC(=O)N2CCN(S(=O)(=O)c3ccccc3)CC2)n1 returned Six1-Eya2 blk 18, D2 agonist -2.2, D2 potentiator -12, gsp antag -10%, gsp agonist -5%[15.4 µM] and CtBP-E1A inh -3.
Screening CCN1C(=O)N[C@@H](c2ccccc2)C(C(=O)OC)=C1C returned Six1-Eya2 blk 5, D2 agonist -0.5, D2 potentiator -5, gsp antag 1%, gsp agonist -2% and CtBP-E1A inh 2.
COCCCNc1nc2c(c(=O)[nH]c(=O)n2C)n1CC(O)COc1ccccc1C (stereo not drawn) was read as Six1-Eya2 blk -1, D2 agonist -0.6, D2 potentiator -3, gsp antag 1%, gsp agonist 10% and CtBP-E1A inh 1.
For N#Cc1ccc(C(=O)NCC(c2ccco2)N2CCCC2)cc1 (stereo not drawn) the results were Six1-Eya2 blk -6, D2 agonist -4.1, D2 potentiator -33, gsp antag 6%, gsp agonist inconclusive and CtBP-E1A inh -10.
For O=C(Cc1cccc2ccccc12)NN=Cc1ccc2c(c1)CCC2 the results were Six1-Eya2 blk -1, D2 agonist -2.9, D2 potentiator -5, gsp agonist -22% and CtBP-E1A inh 4.
Cc1cc(C(=O)Nc2ccccc2)c(C)o1 was read as Six1-Eya2 blk -2, D2 agonist 0.8, D2 potentiator 2, gsp antag -7%, gsp agonist 1% and CtBP-E1A inh 1.
Cc1ccc(C(=O)CSc2nc(-c3ccccc3)ccc2C#N)cc1 was read as Six1-Eya2 blk 7, D2 agonist 4.4, D2 potentiator -10, gsp antag -6%, gsp agonist inconclusive and CtBP-E1A inh 18.
Screening COc1cc(OC)c(C=O)c(OC(=O)N2CCOCC2)c1 returned Six1-Eya2 blk 4, D2 agonist -2.8, D2 potentiator 0, gsp antag 4%, gsp agonist inconclusive and CtBP-E1A inh -11.
`CC(=O)Nc1nonc1-c1nc2ccccc2n1Cc1ccccn1` gave Six1-Eya2 blk 1, D2 agonist 3.8, D2 potentiator -5, gsp antag 10%, gsp agonist -1% and CtBP-E1A inh 5.
`COc1cccc(CNC(=O)C2CCCN(S(=O)(=O)c3c(C)[nH]c(=O)[nH]c3=O)C2)c1` (stereo not drawn) gave Six1-Eya2 blk 3, D2 agonist -1.3, D2 potentiator 9, gsp antag 3%, gsp agonist -54%[inhibitor] and CtBP-E1A inh 13.
For CCOC(=O)C1=CCC2C(=O)N(CC)C(=O)C12 (stereo not drawn) the results were Six1-Eya2 blk 2, D2 agonist -1.8, D2 potentiator 0 and CtBP-E1A inh 5.
Screening O=C(O)Cc1c(C(=O)O)nnn1-c1cccc(C(F)(F)F)c1 returned Six1-Eya2 blk 9, D2 agonist 0.6, D2 potentiator -2, gsp antag 5%, gsp agonist 7% and CtBP-E1A inh 8.
Screening COC(=O)c1cc(S(=O)(=O)N(C)C2CCCCC2)c[nH]1 returned Six1-Eya2 blk 10, D2 agonist -12, D2 potentiator -7, gsp antag 1% and gsp agonist 2%.
For COc1ccccc1N1CCN(S(=O)(=O)c2ccc(Br)s2)CC1 the results were Six1-Eya2 blk 0, D2 agonist -1.0, D2 potentiator -8, gsp antag 2%, gsp agonist 20% and CtBP-E1A inh 2.
`Cn1c(NC(=O)c2ccc(F)c(F)c2)cc(=O)n(C)c1=O` gave Six1-Eya2 blk -2, D2 agonist -0.1, D2 potentiator -2, gsp antag 9%, gsp agonist inconclusive and CtBP-E1A inh 1.
Screening Cc1ccc(OCC(=O)Nc2nnc(S(=O)(=O)N3CCC(C)CC3)s2)cc1 returned Six1-Eya2 blk -8, D2 agonist -0.9, D2 potentiator -5, gsp antag -9%, gsp agonist -37%[15.4 µM] and CtBP-E1A inh -2.
For CCN1C(=O)c2ccccc2S(=O)c2ccc(C(=O)NCCN(CC(C)C)CC(C)C)cc21 (stereo not drawn) the results were Six1-Eya2 blk 2, D2 agonist -0.7, D2 potentiator -39, gsp antag 1%, gsp agonist -39%[inhibitor] and CtBP-E1A inh 2.
CC(C)OCCCNC(=S)NNC(=O)c1ccc(Cl)c(Cl)c1 was read as Six1-Eya2 blk 1, D2 agonist -5.3, D2 potentiator -5, gsp antag -10%, gsp agonist -7% and CtBP-E1A inh 5.
For O=C(CSc1nnc(CNC(=O)c2ccccc2)o1)NCc1ccccc1 the results were Six1-Eya2 blk -4, D2 agonist -2.6, D2 potentiator -27, gsp antag -2%, gsp agonist -3% and CtBP-E1A inh 1.
For COc1ccc(N2CCN(C(c3ccccc3)c3nnnn3Cc3ccc(F)cc3)CC2)cc1 (stereo not drawn) the results were Six1-Eya2 blk inconclusive, D2 agonist -0.7, D2 potentiator -1, gsp antag -2%, gsp agonist -34%[inhibitor] and CtBP-E1A inh -29.
`CCOc1ccccc1NC(=O)c1ccc2ccccc2c1` gave Six1-Eya2 blk 13, D2 agonist -1.6, D2 potentiator -8, gsp antag -18%, gsp agonist -54%[inhibitor] and CtBP-E1A inh 22.
CC(C)C(NC(=O)OCc1ccccc1)C(=O)OCC(=O)N1C(C)CCCC1C (stereo not drawn) was read as Six1-Eya2 blk 25, D2 agonist -4.1, D2 potentiator -3, gsp antag 31%, gsp agonist inconclusive and CtBP-E1A inh 3.
COCCCn1c(SCc2ccccc2)nc2cc(OC)c(OC)cc2c1=N was read as Six1-Eya2 blk -16, D2 agonist -3.1, D2 potentiator -19, gsp antag -10%, gsp agonist 18% and CtBP-E1A inh -11.
For CCc1ccc(-n2cc(-c3ccc(F)cc3)[n+]3c2SCCC3)cc1 the results were Six1-Eya2 blk -9, D2 agonist -3.9, D2 potentiator -13, gsp antag -6%, gsp agonist -23% and CtBP-E1A inh -15.
Cc1ccc2c(CC(=O)OC3CCOC3=O)coc2c1 (stereo not drawn) was read as Six1-Eya2 blk 4, D2 agonist -1.2, D2 potentiator -3, gsp antag -9%, gsp agonist -43%[inhibitor] and CtBP-E1A inh -9.
`CCOc1ccc(-c2[nH]ncc2-c2ccccc2)c(O)c1` gave Six1-Eya2 blk -6, D2 agonist 13, D2 potentiator -5, gsp antag -4% and gsp agonist -28%.
For CSc1cccc(NC(=O)C2CCCN(S(=O)(=O)c3cnc[nH]3)C2)c1 (stereo not drawn) the results were Six1-Eya2 blk 1, D2 agonist -2.7, D2 potentiator 6, gsp antag 4%, gsp agonist 0% and CtBP-E1A inh 0.
Screening COc1ccc(/C=C/c2onc(C)c2S(=O)(=O)N2CCC(C(=O)N3CCCCCC3)CC2)cc1 returned Six1-Eya2 blk -1, D2 agonist -3.7, D2 potentiator -20, gsp antag -25%, gsp agonist -13% and CtBP-E1A inh -12.

Arranged by molar mass (rising): some entries from above
`CCOc1ccc(-c2[nH]ncc2-c2ccccc2)c(O)c1` gave Six1-Eya2 blk -6, D2 agonist 13, D2 potentiator -5, gsp antag -4% and gsp agonist -28%.
Screening COC(=O)c1cc(S(=O)(=O)N(C)C2CCCCC2)c[nH]1 returned Six1-Eya2 blk 10, D2 agonist -12, D2 potentiator -7, gsp antag 1% and gsp agonist 2%.
For O=C(Cc1cccc2ccccc12)NN=Cc1ccc2c(c1)CCC2 the results were Six1-Eya2 blk -1, D2 agonist -2.9, D2 potentiator -5, gsp agonist -22% and CtBP-E1A inh 4.
For CSc1cccc(NC(=O)C2CCCN(S(=O)(=O)c3cnc[nH]3)C2)c1 (stereo not drawn) the results were Six1-Eya2 blk 1, D2 agonist -2.7, D2 potentiator 6, gsp antag 4%, gsp agonist 0% and CtBP-E1A inh 0.
For O=C(CSc1nnc(CNC(=O)c2ccccc2)o1)NCc1ccccc1 the results were Six1-Eya2 blk -4, D2 agonist -2.6, D2 potentiator -27, gsp antag -2%, gsp agonist -3% and CtBP-E1A inh 1.
COCCCn1c(SCc2ccccc2)nc2cc(OC)c(OC)cc2c1=N was read as Six1-Eya2 blk -16, D2 agonist -3.1, D2 potentiator -19, gsp antag -10%, gsp agonist 18% and CtBP-E1A inh -11.

(list continues)
For CN(CC(=O)Nc1ccc(F)cc1)C(=O)COC(=O)CN1C(=O)NC2(CCCC2)C1=O the results were Six1-Eya2 blk 14, D2 agonist -1.0, D2 potentiator -6, gsp antag 15%, gsp agonist -5% and CtBP-E1A inh -3.
O=C(O)CCS(=O)(=O)Cc1ccccc1Cl was read as Six1-Eya2 blk 6, D2 agonist 0.9, D2 potentiator -6, gsp antag 2%, gsp agonist -30% and CtBP-E1A inh 11.
O=C(COC(=O)C1CC1)Nc1nc(-c2ccc(F)c(F)c2)cs1 was read as Six1-Eya2 blk 8, D2 agonist -1.8, D2 potentiator 4, gsp antag -2%, gsp agonist 8% and CtBP-E1A inh -13.
Cc1cccc(S(=O)(=O)NCCC(=O)OC(C)C(=O)NC(=O)NC2CCCCC2)c1 (stereo not drawn) was read as Six1-Eya2 blk 11, D2 agonist 0.0, D2 potentiator -3, gsp antag -1%, gsp agonist 1% and CtBP-E1A inh -6.
`OCC[C@@H]1C[C@H](O)[C@@H](O)[C@]2(OCc3cc(C(F)(F)F)ccc32)O1` gave Six1-Eya2 blk 8, D2 agonist -4.9, D2 potentiator -5 and CtBP-E1A inh 8.
Screening C=CCn1cc(-c2cccc(C(F)(F)F)c2)cc(C#N)c1=O returned Six1-Eya2 blk 8, D2 agonist 5.0, D2 potentiator 8, gsp antag 0%, gsp agonist 8% and CtBP-E1A inh 0.
For Cc1ccc(NC2=CC(=O)CC(C)(C)C2)cc1F the results were Six1-Eya2 blk 5, D2 agonist 1.7, D2 potentiator -1, gsp antag 0%, gsp agonist 12% and CtBP-E1A inh 7.
`COc1ccccc1N1CCN(S(=O)(=O)c2ccc3nc(-c4ccccc4)[nH]c3c2)CC1` gave Six1-Eya2 blk -27, D2 agonist 4.4, D2 potentiator 12, gsp antag -13%, gsp agonist 3%[15.4 µM] and CtBP-E1A inh -12.
